miR-21 reporter: miR-21 reporter, rising signal | HeLa miR-21 FLuc reporter, luciferase, 48 h | Potency, µM (series often up to 38.3 µM), for inactives: top-dose reporter change, positive = more light | 340,000 tested, under 10 active | AID 2288; active = well fitted rising curve with a large enough effect; inconclusive = small, poorly fitted or top-dose-only effect; inactive = no such curve, though single readings can be large or run the other way;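 further: % of control where 0% means no effect; miR-21 action dims this reporter so a rising signal means less miR-21 action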
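Using DMEM plus 10% FBS, HeLa miR-21-FLuc cells are incubated with test compounds (final up to about 40uM) for 48 hours; firefly luciferase signal is then imaged following reagent-mediated lysis.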
Rango dissoc inh: inhibitors of RanGTP-induced Rango-importin beta complex dissociation | O95149+P62826 | Biochemical FRET Rango-importin beta, RanGTP-induced dissociation | Potency, µM (doses to about 46.1 µM), inactives show top-dose activity change, negative = inhibition | 340,000 compounds, 0.071% hits | AID 540253; active means falling FRET ratio curve, often poorly fitted, with flat reads before Ran was added; inconclusive means other falling curves, or compound fluorescence or quenching; inactive means flat or rising ratio curve;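 further: potency means the concentration at half of the fitted maximal effect; % of control where 0% means no effect; nearly all actives have a fitted effect of over 45% in size; -100% = wells without RanGTP and RCC1; the record marks most hits as doubtful in a second field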
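Recombinant Rango FRET biosensor (EYFP–snurportin 1 IBB–cerulean CFP10) at 0.1 uM premixed with 0.25 uM importin beta in PBS, 1 mM DTT, 0.02% Tween-20, 0.1% BSA. Compound added 5 min; RanGTP-RCC1 (0.6 uM Ran, 2 mM GTP, 0.2 uM RCC1) then triggers release, read at 45 min.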
Rango complex inh: Rango-importin beta binding inhibition | 340,000 compounds, 0.031% hits | Potency, µM (series often up to 92.2 µM), inactives show at the highest dose inhibition of complex formation | Rango CFP/YFP FRET sensor + importin beta, 45 min; active = rising FRET ratio curve, often small or poorly fitted; inconclusive = mostly compound fluorescence or quenching in the first reads; inactive = flat curves in all reads;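 further: potency means the concentration at half of the fitted maximal effect; 0% = DMSO wells and 100% = buffer wells lacking importin beta; nearly all actives have a fitted effect of over 15% in size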
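Inhibition scored from the CFP 486 nm/YFP 530 nm FRET ratio 45 min after adding 0.125 microM importin beta to 50 nM Rango biosensor preincubated 5 min with compound (room temperature, PBS with DTT, Tween-20, BSA). No-importin wells as positive control.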
GLA inh pH 4.5: inhibitors of human alpha-galactosidase A at pH 4.5; activity change, negative = inhibition, % at 105 µM; purified enzyme, 4-MU-alpha-Gal fluorescence, pH 4.5; P06280; 230,000 tested, under 10 active; inconclusive = small, poorly fitted or top-dose-only inhibition, or a rising curve; inactive = flat fitted curve, though single readings scatter; no compound was filed as active;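 further: 0% = full activity with enzyme and -100% = basal without enzyme; dose as in the result columns while the protocol names 77 µM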
Target sequence (P06280 whole entry, looked up): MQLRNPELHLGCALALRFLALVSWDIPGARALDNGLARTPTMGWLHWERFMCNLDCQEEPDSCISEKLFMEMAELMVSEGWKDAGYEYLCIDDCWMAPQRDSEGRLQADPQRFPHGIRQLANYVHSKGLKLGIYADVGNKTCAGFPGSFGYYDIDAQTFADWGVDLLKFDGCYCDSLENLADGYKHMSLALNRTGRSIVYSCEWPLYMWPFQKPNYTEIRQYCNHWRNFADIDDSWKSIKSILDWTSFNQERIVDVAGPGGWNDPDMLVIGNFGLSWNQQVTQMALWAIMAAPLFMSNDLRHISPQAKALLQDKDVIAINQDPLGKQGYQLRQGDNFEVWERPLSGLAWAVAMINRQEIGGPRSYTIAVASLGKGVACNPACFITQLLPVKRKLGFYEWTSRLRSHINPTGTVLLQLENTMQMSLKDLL
Active calls of the source: *; ? = inconclusive; . = not tested or not shown; [ ] = dose if it differs, or a comment. The list is partial; count on the stated rates, not on these rows.

smiles,Rango dissoc inh,miR-21 reporter,GLA inh pH 4.5,Rango complex inh
CC(C)C(=O)NCCCc1ccccc1,8.2%,-2.0%,-20.2,0.1%
O=C(CCl)NCCCN(C(=O)C(Cl)Cl)c1ccc([N+](=O)[O-])cc1,-2.1%,26.9%,3.3,-0.2%
O=C(NCCN1CCN(c2ccccc2)CC1)c1ccc(NC(=O)C2CCCO2)cc1 (stereo unspecified),3.0%,-1.7%,8.1,-0.5%
O=C(NCCN1C(=O)C2C3C=CC(C3)C2C1=O)NCc1ccccc1 (stereo unspecified),-6.0%,-0.4%,-5.7,-0.9%
Cc1cccc(CCNC(=O)c2cccc(N3CCCC3=O)c2)c1,-13.3%,-43.4%,.,4.5%
CCOC(=O)C(C)N1CC(=O)N(c2ccccc2)C1=O (stereo unspecified),19.8%,.,.,-1.6%
CCc1ccc(C(=O)NNC(=O)Cn2c(=O)cnc3ccccc32)cc1,2.2%,.,.,0.6%
CCOC(=O)C1(Cc2ccccc2)CCN(Cc2ccc3cc(NC(C)=O)ccc3n2)CC1,-9.8%,0.2%,-2.8,-0.7%
CCOC(=O)Cc1csc(NC(=S)NC(=O)c2ccc(F)cc2)n1,1.9%,-4.1%,-11.9,0.0%
O=C(c1ccc(N2CCN(C(=O)c3ccc(F)c(F)c3)CC2)cc1)c1cccc(F)c1,-0.5%,-7.2%,.,?
Cc1ccc(OCC(=O)c2cc(C)n(CC(F)(F)F)c2C)c([N+](=O)[O-])n1,-1.9%,9.8%,3.2,0.8%
C/C(=N\Nc1nc(C)cc(-c2ccccc2)n1)c1ccc(F)cc1,-3.9%,0.5%,.,-4.8%
CC(C)(C)OC(=O)C[C@H]1C/C=C\C[C@@H](CC(=O)N(CCO)Cc2ccccc2)C(=O)N[C@@H](c2ccccc2)COC1=O,-10.0%,.,.,-1.3%
CCc1cccc2c(C(=O)Cn3nnc(-c4ccc(OC)c(OC)c4)n3)c[nH]c12,-9.1%,-3.3%,-6.8,-0.6%
Cn1c(=O)c2c(ncn2Cc2cc(-c3ccccc3)no2)n(C)c1=O,5.0%,1.3%,0.4,2.7%

One compound at a time, from the list above. Order of values: Rango dissoc inh | miR-21 reporter | GLA inh pH 4.5 | Rango complex inh
O=C(CCl)NCCCN(C(=O)C(Cl)Cl)c1ccc([N+](=O)[O-])cc1 across the screens: -2.1% | 26.9% | 3.3 | -0.2%
CC(C)(C)OC(=O)C[C@H]1C/C=C\C[C@@H](CC(=O)N(CCO)Cc2ccccc2)C(=O)N[C@@H](c2ccccc2)COC1=O across the screens: -10.0% | . | . | -1.3%
CCOC(=O)Cc1csc(NC(=S)NC(=O)c2ccc(F)cc2)n1 across the screens: 1.9% | -4.1% | -11.9 | 0.0%
Cn1c(=O)c2c(ncn2Cc2cc(-c3ccccc3)no2)n(C)c1=O across the screens: 5.0% | 1.3% | 0.4 | 2.7%

Carrying on:
smiles,Rango dissoc inh,miR-21 reporter,GLA inh pH 4.5,Rango complex inh
O=C(C1CCCN1S(=O)(=O)c1ccc(Cl)cc1)N1CCN(c2ccccc2)CC1 (stereo unspecified),7.5%,.,.,-0.3%
CC1CCN(S(=O)(=O)c2ccc(NC(=O)CCN3C(=O)C4CC=CCC4C3=O)cc2)CC1 (stereo unspecified),0.0%,.,.,-0.7%
COc1cc(CC(=O)Nc2cccc(S(=O)(=O)N(C)c3ccccc3)c2)cc(OC)c1OC,7.0%,.,.,2.6%
O=C(O)CCC(=O)Nc1ccc(Cc2ccc(NC(=O)CCC(=O)O)c(O)c2)cc1O,-17.0%,-0.4%,-5.0,4.5%
O=C(CN1C(=O)COc2ccccc21)NCCCN1CCc2ccccc2C1,-4.9%,-6.2%,-1.2,0.0%
COc1coc(C(O)CN)cc1=O (stereo unspecified),-7.2%,-8.1%,-10.0,?
CC(=O)NC(CC(=O)Nc1nc(-c2ccccc2)c(C(C)=O)s1)c1ccccc1 (stereo unspecified),6.6%,4.6%,.,7.8%
COc1ccccc1-c1nc(C#N)c(NCCCn2ccnc2)o1,4.2%,-11.2%,1.4,-1.4%
CCCn1c(SCC(=O)C(C)(C)C)nc2ccccc21,0.1%,-3.3%,2.1,7.0%
CCOc1ccccc1NC(=O)CN1CCC(NC(=O)Nc2ccccc2)CC1,1.1%,1.9%,.,2.3%
Cc1nnc2n(-c3ccccc3)c(=O)c3c4c(sc3n12)COC(C(C)C)C4 (stereo unspecified),-5.2%,-8.2%,8.6,0.1%
O=C(Nc1ccc2c(c1)OCO2)c1cccc(S(=O)(=O)N2CCOCC2)c1,19.0%,.,.,-2.4%
CC1CCCN(c2cc(N(C)CCO)c([N+](=O)[O-])c3nonc23)C1 (stereo unspecified),-6.8%,-3.3%,-4.0,2.3%
CCOc1ccc(C(=O)Nc2ccc3[nH]ncc3c2)cc1,0.6%,-0.6%,.,-0.5%
Cc1cc(C)c(S(=O)(=O)NCc2ccncc2)c(C)c1,-0.9%,16.7%,7.4,-1.4%

As a working copy, 2 of the compounds above.
smiles,Rango dissoc inh,miR-21 reporter,GLA inh pH 4.5,Rango complex inh
CCOc1ccc(C(=O)Nc2ccc3[nH]ncc3c2)cc1,0.6%,-0.6%,.,-0.5%
Cc1cc(C)c(S(=O)(=O)NCc2ccncc2)c(C)c1,-0.9%,16.7%,7.4,-1.4%

Other structures:
smiles,Rango dissoc inh,miR-21 reporter,GLA inh pH 4.5,Rango complex inh
NS(=O)(=O)c1ccc(NC(=O)Nc2ccc3c(c2)OCO3)cc1,1.1%,-37.4%,.,1.6%
O=C(Nc1c(C(=O)NCc2ccco2)cnn1-c1ccccc1)c1ccc(F)cc1,-12.8%,-6.3%,-3.0,3.0%
CCC1(c2ccccc2)NC(=O)N(CC(=O)N2CCN(S(=O)(=O)c3ccccc3)CC2)C1=O (stereo unspecified),10.0%,3.3%,-1.0,-1.4%
CCOC(=O)c1c(NC(=O)CSc2nnc(-c3ccco3)o2)sc(C)c1C,-0.7%,2.6%,-0.2,-4.1%
CC(C)N(Cc1cc2ccccc2[nH]c1=O)C(=O)c1cccnc1,-2.3%,-5.5%,0.1,-0.1%
COc1ccc(N(CC(=O)Nc2cc(C(=O)O)ccc2C)S(=O)(=O)c2c(C)noc2C)cc1,-1.2%,-0.7%,12.4,-1.3%
NC1=NC(=O)C(Cc2ccc(OC(F)(F)F)cc2)S1 (stereo unspecified),31.1%,-6.6%,.,0.0%
COc1cccc(CNC(=O)Cn2cccc2)c1,2.5%,-6.2%,2.2,0.8%
CCOC(=O)N1CCC(NC(=S)Nc2ccc3nc(N4CCN(C)CC4)cc(C)c3c2)CC1,2.5%,5.4%,6.1[21.1 µM],1.9%
CCC/C(=C1/C(=O)CC(C)(C)C(C(=O)OC)C1=O)N1CCCC1 (stereo unspecified),0.2%,-6.2%,0.0,-4.6%
Cc1cc(C)nc(N2CCC(C(=O)O)CC2)n1,-23.8%,-4.3%,0.1,0.9%
COc1ccc(-c2nnn(CC(=O)N(CCCO)C(C(=O)NC3CCCC3)c3ccc(F)cc3)n2)cc1 (stereo unspecified),1.0%,4.7%,0.1,-1.3%
Cc1ccc(-c2nn3c(C)nnc3s2)cc1NC(=O)C(C)C,-20.3%,-5.4%,1.4,6.4%
O=C(CNc1ccccc1Cl)Nc1cc(S(=O)(=O)N2CCOCC2)ccc1Cl,37.1%,.,.,-0.1%
NC(=O)CCC(NS(=O)(=O)c1ccc(Cl)cc1)C(=O)NCc1ccc(Cl)cc1 (stereo unspecified),-7.3%,-2.1%,-6.3,-1.6%
NC(=S)NNc1cccc(Cl)c1,-4.6%,10.6%,-4.9,0.0%
COc1cc([C@H]2c3c(cc(OC)c(O)c3OC)C[C@@H](CO)[C@@H]2CO[C@@H]2O[C@H](CO)[C@@H](O)[C@H](O)[C@H]2O)cc(OC)c1O,-23.6%,.,.,6.3%
Cc1ccc(N=C2NC(=O)C(CC(=O)NCc3ccccc3)S2)cc1C (stereo unspecified),3.7%,-5.0%,3.0,2.2%
O=C(NCc1ccccn1)C1(C(F)(F)F)C/C(=C\CCO)CCCO1 (stereo unspecified),-3.7%,.,.,0.6%
Cc1cc(NC(=O)CS(=O)CC(=O)Nc2c(C)cccc2C)ccc1-n1cnnn1 (stereo unspecified),4.6%,-2.2%,.,4.0%
O=C(Nc1ccccc1C(=O)N1CCOCC1)c1cccnc1,17.4%,-1.4%,4.5,1.0%
O=C(O)CN1C(=O)COc2ccc(S(=O)(=O)N3CCCCCC3)cc21,-11.8%,-3.0%,.,0.4%
Cc1nc(C)c(C(=O)Nc2ccccc2)s1,-18.9%,-31.9%,7.0,-3.4%
COc1ccc(NC(=O)CN(C)C(=O)c2n[nH]c3ccccc23)cc1,-3.4%,.,.,-1.8%
CCOC(=O)c1c(C)[nH]c(C(=O)COC(=O)c2ccc(O)cc2)c1C,10.1%,-29.0%,7.0,-0.5%
O=c1cc(CN2CCOCC2)c2ccc(O)c(O)c2o1,7.6%,-9.2%,.,-1.5%
CCOc1ncccc1C(=O)Nc1ccc(C)c(S(=O)(=O)N2CCCCCC2)c1,-8.9%,.,.,7.1%
Cc1ccccc1-n1nc2c(c1NC(=O)CC(C)C)CS(=O)C2 (stereo unspecified),5.2%,0.5%,.,-5.8%
CC(CCc1ccccc1)NC(=O)COC(=O)c1ccc(F)cc1 (stereo unspecified),5.9%,-2.7%,.,5.6%
Cc1sc2ncnc(N3CCC(C(=O)Nc4cc(Cl)ccc4Cl)CC3)c2c1C,10.2%,.,.,-3.6%
O=c1oc2ccccc2c(NCc2cccc(F)c2)c1[N+](=O)[O-],-11.5%,-18.4%,-0.4,-0.5%
Cc1sc(N)nc1-c1ccc(Oc2ccccc2)cc1,11.0%,-33.5%,.,0.2%
Cc1noc(C)c1S(=O)(=O)N(CC(=O)Nc1ccc2c(c1)OCCO2)c1ccc(C(C)C)cc1,-9.1%,20.4%,-9.0,-2.8%
C[C@@H]1NC(=O)[C@@]2(C)[C@@H](c3ccccc3)[C@H]3COc4ccccc4[C@@H]3N2C1=O,-5.7%,.,.,0.6%
CCCC(=O)Nc1ccc(C(=O)NNC(=O)c2cccs2)cc1,16.3%,-7.4%,6.3,-5.8%
Cc1cc(C)n(C(=O)c2ccc(C)c(S(=O)(=O)N3CCOCC3)c2)n1,2.4%,0.4%,4.4,-2.7%
COC(=O)C1NN=C(C(=O)c2ccccc2)C1c1ccccc1 (stereo unspecified),-21.2%,-6.3%,4.0,?
Cc1ccc(C)c(-c2nnc(NC(=O)Cc3ccccc3)o2)c1,-4.0%,3.0%,.,0.6%
O=C(CCSc1nccn1Cc1ccccc1)N1CCOCC1,-18.1%,-24.0%,-5.9,-2.1%
Cc1cc2cccc(C)c2nc1SCC(=O)N(C)c1nc(-c2ccccc2)cs1,10.7%,-0.4%,-24.3,?
CCN(CCn1cccn1)C(=O)CCc1nnc(-c2ccc3c(c2)OCO3)o1,-10.7%,-12.2%,-7.6,0.3%
CCOC(=O)N1CCN(C(=O)c2ccc3c(=O)n(Cc4ccc(OC)cc4)c(=S)[nH]c3c2)CC1,6.8%,6.4%,2.1,0.3%
Cc1ccccc1NC(=O)N(CCc1nc2ccccc2[nH]1)Cc1ccccc1,11.0%,0.9%,-8.9,1.5%
CCOc1ccc(NC(=O)CCNS(=O)(=O)c2ccc3c(c2)CC(C)N3C(C)=O)cc1 (stereo unspecified),4.6%,3.3%,.,0.2%
CN(Cc1nc2ccc(Cl)cc2[nH]1)Cc1nc(-c2cnccn2)no1,-25.7%,-0.3%,8.0,-2.9%
CCC(CO)NCc1ccc(OCC(=O)Nc2cccc(C(F)(F)F)c2)c(OC)c1 (stereo unspecified),-9.4%,-9.7%,-2.2,3.0%
COc1cccc(C(=O)CN2CCN(S(=O)(=O)c3cccc([N+](=O)[O-])c3)CC2)c1,-14.5%,-2.7%,-4.3,-0.2%
Cc1cc(S(=O)(=O)Nc2nc(CN3CCOCC3)nc3sc4c(c23)CCCC4)ccc1F,-16.5%,-14.9%,-9.9,-1.6%
